RanGTP-Imp inh: inhibitors of RanGTP-importin-beta interaction, primary screen, biochemical, FRET, CFP-Ran, YFP-importin-beta, homogeneous. cell-free CFP-Ran/YFP-importin-beta FRET ratio. inhibition, % (concentration not given with the values). actives 1.1% (n = 300,000). AID 2216;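 active means most replicates above 15%; inconclusive means exactly half above 15%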;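 further: 0% = DMSO wells and 100% = Ran loaded with GDP instead of GTP; wells of about 40 µL received 100 nL stock; the first replicate is given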
MLL AF4-AF9 inh: MLL-AF4/AF9 protein interaction inhibition. P42568. AlphaScreen, biotin-AF4 peptide binding to FLAG-AF9. inhibition, % at 10 µM. actives 0.47% (n = 350,000). AID 651704;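 active means every replicate reaching a set inhibition limit, whatever the replicate mean, cut at about 25% in these data; inconclusive means mean inhibition reaches that limit but some replicates miss it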;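 further: 0% = plate neutral control median and 100% = total signal loss; the record names both 10 and 1 µM as test concentration; the first replicate is given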
Target sequence (P42568 whole entry, looked up): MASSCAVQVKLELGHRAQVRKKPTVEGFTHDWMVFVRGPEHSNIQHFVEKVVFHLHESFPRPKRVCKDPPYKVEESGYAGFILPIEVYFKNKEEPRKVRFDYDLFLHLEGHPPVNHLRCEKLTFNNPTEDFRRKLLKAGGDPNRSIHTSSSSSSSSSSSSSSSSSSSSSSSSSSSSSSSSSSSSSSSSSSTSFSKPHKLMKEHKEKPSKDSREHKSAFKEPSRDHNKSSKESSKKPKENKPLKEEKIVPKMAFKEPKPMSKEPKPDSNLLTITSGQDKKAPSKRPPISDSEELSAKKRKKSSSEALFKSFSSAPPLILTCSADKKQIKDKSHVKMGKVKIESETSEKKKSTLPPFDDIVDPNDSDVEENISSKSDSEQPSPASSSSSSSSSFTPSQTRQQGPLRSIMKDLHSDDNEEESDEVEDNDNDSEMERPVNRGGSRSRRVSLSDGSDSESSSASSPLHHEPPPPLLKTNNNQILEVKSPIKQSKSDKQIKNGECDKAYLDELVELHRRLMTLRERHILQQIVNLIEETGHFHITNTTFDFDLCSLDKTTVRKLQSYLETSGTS
Bfl-1 A1 inh: inhibitors of the anti-apoptotic protein A1, read as caspase activation; actives 0.066% (n = 330,000); caspase activation, % (test concentration not listed); MEF A1-2A-BIM cells, Caspase-Glo 3/7 luminescence, 3 h; percent of clofoctol response, vehicle zero;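 active means over half of replicate activation scores above 10%, or exactly half above 10 with the replicate mean above 10; inconclusive means replicate mean below 10 yet half the replicates above 10; inactive means over half of replicates below 10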;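 further: wells of about 30 µL received 50 nL stock; many hits fall short of the cut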
Calb FLC: C. albicans growth modulation with fluconazole; C. albicans CaCi-2 (fluconazole-resistant clinical isolate) + fluconazole, Alamar Blue growth, 48 h; growth inhibition, % (concentration not given with the values); actives 0.57% (n = 300,000); AID 1979;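 active means most replicates above 75%; inconclusive means exactly half above 75%; inactive means most below 75%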;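 further: all wells also contain fluconazole at 8 µg/ml as a sub-toxic cotreatment; 0% = median of DMSO wells and 100% = median of geldanamycin control wells; wells of about 8 µL received 7.5 nL stock; the first replicate is given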
Vif A3G: inhibitors of Vif binding to APOBEC3G peptide, primary screen, biochemical, TR-FRET, GST-Vif 1-94, biotin-A3G peptide, dose response retest (AID 1117319); one-dose inhibition, %; IC50 in µM for titrated hits; TR-FRET GST-Vif / biotin-A3G peptide binding; higher % means a stronger effect; test concentration not given here; strong numbers were not always called active; actives 0.57% (n = 260,000);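 active means above the screen mean plus three standard deviations and confirmed in dose response; inconclusive means results disagree or hit not tested in dose response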;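 further: Vif residues 1-94 fused to GST binding biotinylated APOBEC3G peptide 110-148; 0% = full assay without inhibitor and 100% = GST in place of GST-Vif; retest series ran down from 100 µM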
T cruzi repl: blocks replication of Trypanosoma cruzi; T. cruzi beta-gal in NIH3T3, luminescence, 90 h; inhibition, % (test concentration not listed); actives 1.4% (n = 300,000); AID 1885;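 active means mean inhibition across valid replicates above about 55%, limit read from the data; inconclusive means mean below that limit but half or more replicates reach it; inactive means mean below it, under half of replicates reach it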;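 further: signal also drops with host cell toxicity which is not excluded here; 0% = plate median of DMSO wells and 100% = zero luminescence signal; higher percent means less beta-gal luminescence so fewer parasites; stock transfer was 50 nL into about 50 µL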
rRNA inh HTS: inhibitors of bacterial rRNA selective over humanized ribosomes; AID 720706; GFP signal change (wild-type ribosome), % (no concentration beside the values); actives 1.6% (n = 350,000); E. coli WT GFP vs humanized-ribosome RFP mutants, fluorescence, 24 h; stronger effect = lower value; DMSO median 0, no signal -100;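 active means significant combined selectivity score with lowered wild-type GFP, culture density cut under 30%, mutant RFP and density less affected; inactive means any of these conditions unmet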; further: one replicate is shown; some compounds called inactive have numbers as strong as hits
Beta apoptosis: beta cell apoptosis inhibition; INS-1E cytokine-induced death, ATP luminescence, 48 h; percent of positive-control rescue, neutral wells zero; protection from apoptosis, % (no concentration beside the values); actives 0.8% (n = 300,000); AID 435005;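 active means all replicates at 75% or more, or half of them and the mean; inconclusive means half reach 75% but not the mean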;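 further: 0% = cytokine-treated negative control wells and 100% = positive control rescue; higher means more ATP so stronger rescue from cytokine killing; wells of about 40 µL received 100 nL stock; the first replicate is given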
rRNA inh HTS OD600: also measured in rRNA inh HTS; calls as there; OD600 change, %; measured here: OD600 growth;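 optical density of the mix in the first replicate; 0 = DMSO median and -100 = no signal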
rRNA inh HTS RFP: recorded beside rRNA inh HTS, whose call it bears; RFP signal change, %; measured here: RFP humanized mutant strains;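 first replicate; 0 = DMSO median and -100 = no signal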
The depositor's hits bear a star; u = inconclusive; x = no result given. The list is partial; rates above refer to the full screens.

SMILES	RanGTP-Imp inh	MLL AF4-AF9 inh	Bfl-1 A1 inh	Calb FLC	Vif A3G	T cruzi repl	rRNA inh HTS	rRNA inh HTS OD600	rRNA inh HTS RFP	Beta apoptosis
CCn1c2ccccc2c2cc(NC(=O)c3ccccc3[N+](=O)[O-])ccc21	0.5	-2.4	-0.8	-22	15µM*	37	-6	-13	-8.5	6
Cc1cccc(CCN(CC(=O)NC2CCCCC2)C(=O)c2csnn2)c1	-2.6	-2.8	0.5	5	1%	-3	15	12	-1.0	0
Cc1nn2c(nc(N3CCOCC3)c3ccccc32)c1C=C(C#N)C#N	11	16	0.2	-8	-16%	-19	3	20	2.5	-5
N/N=C(/Cc1nc2ccccc2[nH]1)c1ccc([N+](=O)[O-])cc1	0.9	5.7	0.5	-3	u	10	5	20	-1.1	1
CCNC(=O)NC(=O)C(C)Sc1nnc(COc2ccccc2Cl)o1 (stereo unspecified)	-1.0	x	0.1	-1	4%	-11	x	x	x	-1
CCOc1ccc(S(=O)(=O)N=C(c2ccccc2)N2CCOCC2)cc1	x	3.7	1.1	x	-2%	x	6	-1	1.6	-2
CC(=O)Nc1ccc(NC(=O)C2CCN(C(=O)c3cccs3)CC2)cc1	-0.9	22	0.1	-11	-2%	3	6	17	-0.2	-3
Cc1cc(N)n(-c2ncnc3scc(-c4ccc(Cl)cc4)c23)n1	-6.7	x	-0.1	30	11%	-11	x	x	x	5
Cc1ccccc1Nc1ncnc2c1cnn2Cc1ccccc1	-2.5	2.6	1.3	12	3%	-12	-41	-44	-10.0	1
COc1ccc(/C=C(/C#N)C(=O)Nc2ccccc2C)cc1C(=O)O	u	0.1	0.3	16	x	-11	-2	1	9.5	-7
CCOC(=O)c1cc(S(=O)(=O)N2CCOCC2)cn1C	-0.4	-3.2	-0.3	-9	x	-12	10	7	1.4	1
O=c1c2cc(N3CCOCC3)ccc2[nH]c(=S)n1CCCN1CCCCC1	-2.2	x	0.5	1	-6%	-12	x	x	x	3
O=C(CN1C(=O)NC2(CCCc3ccccc32)C1=O)c1ccccc1F (stereo unspecified)	x	-8.1	-1.3	x	-4%	x	-35*	-20*	0.5*	2
CC(=O)N(/N=C/c1ccc(C)cc1)c1nc(CCl)cs1	-1.0	-1.2	-1.0	0	x	-4	2	3	-1.2	-2
CCN1C(=O)[C@H]2[C@@H](c3ccc(-c4ccc(OC)cc4)cc3)N[C@@](CC(C)C)(C(=O)OC)[C@H]2C1=O	-0.7	4.0	-0.2	-3	x	5	15	20	1.1	-2
COc1ccc(S(=O)(=O)N2CCN(C(=O)c3cc(C)oc3C)CC2)cc1	0.4	1.3	-1.3	5	x	-11	3	2	0.3	-9
CCCn1c(N)[n+](CC(=O)c2ccco2)c2ccccc21	1.9	x	-0.4	0	18%	4	3	6	1.4	0
O=C1CC2c3ccccc3C1C1C(=O)N(CCc3ccccc3)C(=O)C21 (stereo unspecified)	-2.6	-1.3	0.2	u	4%	-11	0	-7	-3.2	2
CC(=O)NC1C(=O)Nc2c1cccc2C(F)(F)F (stereo unspecified)	9.1	x	-0.3	-18	10%	-6	x	x	x	-4
CCOC(=O)C(Sc1n[nH]c(N)n1)c1ccccc1 (stereo unspecified)	0.3	x	0.7	-4	10%	-9	x	x	x	13

Filtered by structure, the compounds so far with fluorine.
SMILES	RanGTP-Imp inh	MLL AF4-AF9 inh	Bfl-1 A1 inh	Calb FLC	Vif A3G	T cruzi repl	rRNA inh HTS	rRNA inh HTS OD600	rRNA inh HTS RFP	Beta apoptosis
O=C(CN1C(=O)NC2(CCCc3ccccc32)C1=O)c1ccccc1F (stereo unspecified)	x	-8.1	-1.3	x	-4%	x	-35*	-20*	0.5*	2
CC(=O)NC1C(=O)Nc2c1cccc2C(F)(F)F (stereo unspecified)	9.1	x	-0.3	-18	10%	-6	x	x	x	-4

Reprinted at random: four entries already listed.
SMILES	RanGTP-Imp inh	MLL AF4-AF9 inh	Bfl-1 A1 inh	Calb FLC	Vif A3G	T cruzi repl	rRNA inh HTS	rRNA inh HTS OD600	rRNA inh HTS RFP	Beta apoptosis
N/N=C(/Cc1nc2ccccc2[nH]1)c1ccc([N+](=O)[O-])cc1	0.9	5.7	0.5	-3	u	10	5	20	-1.1	1
CCn1c2ccccc2c2cc(NC(=O)c3ccccc3[N+](=O)[O-])ccc21	0.5	-2.4	-0.8	-22	15µM*	37	-6	-13	-8.5	6
CC(=O)N(/N=C/c1ccc(C)cc1)c1nc(CCl)cs1	-1.0	-1.2	-1.0	0	x	-4	2	3	-1.2	-2
CCNC(=O)NC(=O)C(C)Sc1nnc(COc2ccccc2Cl)o1 (stereo unspecified)	-1.0	x	0.1	-1	4%	-11	x	x	x	-1

Records above that bear a hit mark in Vif A3G:
compound | RanGTP-Imp inh | MLL AF4-AF9 inh | Vif A3G | rRNA inh HTS | rRNA inh HTS OD600 | rRNA inh HTS RFP
CCn1c2ccccc2c2cc(NC(=O)c3ccccc3[N+](=O)[O-])ccc21 | 0.5 | -2.4 | 15µM* | -6 | -13 | -8.5

More structures.
SMILES	RanGTP-Imp inh	MLL AF4-AF9 inh	Bfl-1 A1 inh	Calb FLC	Vif A3G	T cruzi repl	rRNA inh HTS	rRNA inh HTS OD600	rRNA inh HTS RFP	Beta apoptosis
COc1cc2c(cc1OC)C(C)=NCC2	-3.3	-0.4	1.1	0	-9%	32	6	19	3.2	-1
CCN1CCN(c2ncnc3scc(-c4ccc(C)cc4)c23)CC1	-2.3	2.4	0.2	-17	x	7	0	-1	3.4	-3
O=C(NCc1ccncc1)c1cnccn1	6.4	x	0.5	-1	76%	-3	x	x	x	2
COc1ccc(-c2c(C(=O)O)c(C(=O)O)c3n2CCC3)cc1	-1.7	0.5	-0.4	1	2%	4	-7	4	-3.0	0
COc1cc(OC)c(C(=O)/C=C/c2ccc(OCc3ccccc3)c(OC)c2)c(OC)c1	-4.0	10	0.8	-6	x	28	0	3	19	x
O=C(CN1CCCC1)Nc1nnc(-c2cccs2)s1	u	u	0.6	-10	-3%	-5	-1	-3	-2.5	-4
COc1ccc(CSc2ccc(-c3nc4ccccn4c3NCc3ccccc3)cc2OC)cc1	-0.1	x	-0.9	-8	x	43	x	x	x	5
Cn1c(CNc2nc3ccccc3n2CCN2CCCCC2)nc2ccccc21	2.4	x	0.8	u	11%	19	x	x	x	3
COc1ccc(CCNC(=O)CCCn2nc(C)n3ccnc3c2=O)cc1OC	1.0	-3.7	0.3	9	x	7	4	10	-0.8	-5
CCN1/C(=C/c2ccc3ccccc3[n+]2CCCS(=O)(=O)[O-])C=Cc2cc(C)ccc21	4.4	2.9	-0.8	-4	-6%	3	3	18	30	30
Cc1ccc2c(COC(=O)CC3Sc4ccccc4NC3=O)cc(=O)oc2c1C (stereo unspecified)	-1.8	1.5	0.6	-2	26%	-5	-1	-3	-1.9	-2
CCOC(=O)c1cc(C#N)c(N)nc1C	2.9	x	-0.2	6	-4%	-2	x	x	x	-3
CCCn1nnc2ccccc2c1=O	5.4	x	-0.2	-3	5%	-11	x	x	x	-7
Cc1c(C#N)c2ccccc2n1CC(=O)O	0.1	x	1.3	-4	0%	13	0	6	-1.4	-4
NNC(=O)CCn1c2ccccc2c2ccccc21	2.3	-0.9	0.0	-7	x	15	-7	-8	0.6	-1
CC(=O)Nc1ccc(S(=O)(=O)NCc2ccncc2)cc1	-2.5	-0.1	-0.1	39	x	13	20	16	0.0	1
Cc1ccc(NC(=O)N2CCC(c3ccccc3)C2)cc1C (stereo unspecified)	9.6	-1.3	-1.1	-1	-2%	3	-12	-2	3.5	0
CCOC(=O)/C(C#N)=C/Nc1ccccc1NS(=O)(=O)c1ccc2c(c1)OCCO2	x	-0.1	0.2	x	-4%	x	-2	-3	0.4	1
NNC(=O)[C@H](Cc1ccccc1)NC(=O)NCCc1ccccc1	0.5	-0.1	1.4	2	-8%	-11	16	11	6.1	-1
CCOc1ccc(N(CC(=O)NCC2CCCO2)S(=O)(=O)c2ccc(Cl)cc2)cc1 (stereo unspecified)	-2.3	x	0.5	-1	-4%	-3	x	x	x	4

The final two compounds of the section before lead into the next:
SMILES	RanGTP-Imp inh	MLL AF4-AF9 inh	Bfl-1 A1 inh	Calb FLC	Vif A3G	T cruzi repl	rRNA inh HTS	rRNA inh HTS OD600	rRNA inh HTS RFP	Beta apoptosis
NNC(=O)[C@H](Cc1ccccc1)NC(=O)NCCc1ccccc1	0.5	-0.1	1.4	2	-8%	-11	16	11	6.1	-1
CCOc1ccc(N(CC(=O)NCC2CCCO2)S(=O)(=O)c2ccc(Cl)cc2)cc1 (stereo unspecified)	-2.3	x	0.5	-1	-4%	-3	x	x	x	4
COc1cccc(C(=O)Nc2ccc3c(c2)C(=O)N(CCC(=O)O)C3=O)c1	-4.5	x	-1.4	14	-6%	1	x	x	x	-1
O=C(Cn1nnc(-c2ccccc2)n1)Nc1cccc(S(=O)(=O)N2CCOCC2)c1	x	6.1	1.8	-1	-1%	-9	-7	-17	1.6	-1
Cn1nnnc1SCc1csc(Nc2ccccc2)n1	2.2	x	-0.1	1	1%	-9	x	x	x	-2
Cc1oc2nc(SCCCC(=O)NCCO)nc(N)c2c1C	0.2	x	0.1	-4	27%	-6	x	x	x	-11
CCOC(=O)CCCCC(=O)c1[nH]c(=O)[nH]c1CSc1nc2ccccc2[nH]1	u	u	-0.1	-12	-72%	0	8	-7	-1.9	x
O=C(/C=C/c1ccc([N+](=O)[O-])cc1)OCC(=O)N1CCOCC1	x	-3.8	0.4	x	-1%	x	8	11	0.7	3
CCc1nc(SCc2cccnc2)[nH]c(=O)c1C	2.1	x	0.4	9	8%	-3	x	x	x	x
Cc1cc(S(=O)(=O)N(Cc2ccc(C(C)(C)C)cc2)Cc2cccs2)ccc1-n1cnnn1	1.1	x	-0.3	5	x	47	x	x	x	31
Cn1cnnc1SCCC(=O)Nc1ccccc1	0.5	x	-0.5	-11	u	-2	x	x	x	x
O=C(CSc1nnc(Cc2cccs2)n1Cc1ccco1)Nc1cc(Cl)cc(Cl)c1	-1.4	x	0.1	-28	4%	19	x	x	x	-3
Cc1ccc(-n2nc3c(=O)n(CC(=O)NC4CCCCCC4)nc(C)c3c2C)cc1	3.0	-0.6	1.9	-5	x	9	-6	2	-3.1	4
CC(C)NC(=O)CN(c1cccc([N+](=O)[O-])c1)S(=O)(=O)c1ccccc1	1.9	-4.3	0.0	-11	1%	-13	1	1	-1.3	-4

High-throughput results deposited in PubChem by several laboratories.
